Arbovirus anti: blocks arbovirus infection; arbovirus infection cell-based antiviral screen; inhibition, % at 10 µM; actives 0.37% (n = 200,000); AID 1251;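 active = inhibition from about 30%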;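 also: bluetongue infection of BSR cells; cell survival read as ATP light after 72 h; 0% = infected wells without compound and 100% = uninfected wells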
RecA splice inh: Mtb RecA intein splicing inhibition | P9WHJ3 | cell-free RecA intein splicing, fluorescence | inhibition, %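 (about 9 µM by stock and volumes)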 | actives 0.75% (n = 290,000) | AID 2221; in the data active = inhibition above about 30%;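 also: 0% = vehicle wells and 100% = reference inhibitor control wells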
Target sequence (P9WHJ3 whole entry, looked up, canonical isoform): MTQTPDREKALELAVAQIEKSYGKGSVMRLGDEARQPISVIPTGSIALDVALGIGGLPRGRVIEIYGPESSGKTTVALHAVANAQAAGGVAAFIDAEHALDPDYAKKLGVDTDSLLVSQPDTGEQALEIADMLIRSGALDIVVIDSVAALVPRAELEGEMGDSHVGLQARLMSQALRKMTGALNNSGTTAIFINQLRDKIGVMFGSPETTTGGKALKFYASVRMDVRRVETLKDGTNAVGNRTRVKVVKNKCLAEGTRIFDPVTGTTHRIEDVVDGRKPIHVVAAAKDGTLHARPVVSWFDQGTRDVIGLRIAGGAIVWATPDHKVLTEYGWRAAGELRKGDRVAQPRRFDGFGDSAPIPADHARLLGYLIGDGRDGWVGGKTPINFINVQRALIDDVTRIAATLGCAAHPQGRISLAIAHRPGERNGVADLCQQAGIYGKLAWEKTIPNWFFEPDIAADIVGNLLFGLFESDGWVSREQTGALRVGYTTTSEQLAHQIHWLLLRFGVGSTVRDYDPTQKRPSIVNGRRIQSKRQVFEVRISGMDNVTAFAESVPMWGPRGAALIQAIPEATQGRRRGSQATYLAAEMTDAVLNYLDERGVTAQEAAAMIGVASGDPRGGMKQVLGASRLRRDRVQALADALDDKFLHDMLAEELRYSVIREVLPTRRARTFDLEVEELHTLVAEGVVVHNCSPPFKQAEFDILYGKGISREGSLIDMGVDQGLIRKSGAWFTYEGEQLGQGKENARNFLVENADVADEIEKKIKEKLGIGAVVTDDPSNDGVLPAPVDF
Mtb bLac sens: beta-lactam sensitization of Mtb H37Rv | M. tuberculosis H37Rv growth with meropenem, percent inhibition; hits of this screen are not shown here | inhibition, % at 25 µM | actives 0.27% (n = 330,000);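 active = about 74% or more and at least 40 points above the plate without the antibiotic, then above 30% in a dose series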;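 also: growth measured after seven days incubation then overnight dye step; 0% = bacteria only wells and 100% = bacteria with antibiotic; twin plates without the antibiotic show which effects depend on it; some results filed as inactive read as strong as hits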
YopH PTP inh: inhibitors of Yersinia enterocolitica YopH tyrosine phosphatase | actives 0.16% (n = 140,000) | inhibition, %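 (about 10 µM by stock and volumes)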 | fluorescence Ex485/Em525;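 active = inhibition of 50% or more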;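 also: controls were vehicle for no effect and minimum signal wells for full effect; inactives centre near -20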
Mtb growth: M. tuberculosis H37Rv growth inhibitors, H37Rv strain (AID 1626). M. tuberculosis H37Rv growth inhibition; higher % means a stronger effect. inhibition, % at 10 µM; hits with a dose series show IC50 in µM. actives 0.95% (n = 220,000);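 active = confirmed in a dose series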;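 also: bacteria incubated seven days before Alamar blue readout; 0% = bacteria only wells and 100% = bacteria with antibiotic wells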
Arbovirus anti repeat: also measured in Arbovirus anti; calls as there; inhibition, %; measured here: 10K subset replicate screen; many hits read low in the repeat;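 first of two repeat runs on a subset; 0% = infected and 100% = uninfected wells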
Starred values were filed as active, the others as inactive; / = not tested or not shown. The list is partial. The share of hits here may be higher or lower than overall.

SMILES | Arbovirus anti | RecA splice inh | Mtb bLac sens | YopH PTP inh | Mtb growth | others
Cc1ccc(S(=O)(=O)CCSc2cccc(C(=O)Nc3ccccc3C(=O)O)c2)cc1 | 44* | -7.7 | 0 | -28 | 1%
CCc1ccccc1N1C(=O)C2CC(C)=C(C)CC2C1=O (stereo not given) | 11 | 1.6 | 3 | 7 | 1%
COc1ccc(C)cc1NC(=O)c1ccc(N(C)S(C)(=O)=O)cc1 | 4 | 0.8 | 30 | -20 | -2%
CC(=O)c1ccc(NC2=C(N3CCOCC3)C(=O)c3ccccc3C2=O)cc1 | -5 | 6.9 | 10 | 99* | 7%
COc1ccc(NC(=O)C2CCN(S(=O)(=O)c3ccc(OC)c(OC)c3)CC2)c(OC)c1 | -3 | 0.2 | -4 | -9 | 1% | Arbovirus anti repeat=1
O=C(Cn1cccc1C(=O)c1ccccc1)NCCc1ccccc1 | / | 1.0 | 5 | / | /
CCn1c(-c2csc(-c3ccc(Cl)cc3)n2)n[nH]c1=S | 0 | -2.1 | -1 | -9 | /
Cc1c(NC(=O)CN2C(=O)NC3(CCC(C)CC3)C2=O)c(=O)n(-c2ccccc2)n1C (stereo not given) | 1 | 3.0 | 3 | / | 2%
Cc1cc(C)nc(SCC(=O)Nc2cc(C)on2)n1 | 1 | 1.0 | -13 | 5 | -7%
CN(C)S(=O)(=O)c1ccc(Cl)c(NC(=O)COC(=O)C2CSC3(C)CCC(=O)N23)c1 (stereo not given) | -10 | -1.4 | 0 | -17 | -3%
CC1(C)Cc2c(c(-c3ccco3)nc3sc4c(NCCCO)ncnc4c23)CO1 | / | / | 2 | / | 4%
CCOC(=O)N1CCN(S(=O)(=O)c2ccc(OC)c(Br)c2)CC1 | / | -0.9 | 5 | / | /
COc1ccccc1CSc1nc2ccccc2[nH]1 | 6 | 0.2 | 4 | -37 | 1%
CCOC(=O)C1=C(CSc2nc(-c3ccccc3)ccc2C#N)OC(N)=C(C#N)C1c1ccccc1 (stereo not given) | -7 | -9.1 | -2 | -6 | -12%
O=C(Nc1ccc2ccccc2n1)Nc1cccs1 | / | 1.4 | -1 | / | -3%

Next section, starting with the last two of the part before.
SMILES | Arbovirus anti | RecA splice inh | Mtb bLac sens | YopH PTP inh | Mtb growth | others
CCOC(=O)C1=C(CSc2nc(-c3ccccc3)ccc2C#N)OC(N)=C(C#N)C1c1ccccc1 (stereo not given) | -7 | -9.1 | -2 | -6 | -12%
O=C(Nc1ccc2ccccc2n1)Nc1cccs1 | / | 1.4 | -1 | / | -3%
Cc1cc2c(cc1C)NC(=O)CC(C(F)(F)C(F)(F)C(F)(F)F)=N2 | 2 | 0.4 | 5 | 5 | -1%
COC(=O)c1sc(NC(=O)COc2ccccc2)nc1C | -9 | 2.2 | -2 | 0 | /
CCCOc1ccc(OCCSc2nnc(N)s2)cc1 | 1 | -1.9 | 2 | -30 | 69%
C=C1CCN([C@@H](CC(C)C)C(=O)NN2CCOCC2)S(=O)(=O)c2ccccc21 | / | 1.1 | -10 | / | -8%
CC(O)[C@H]1CNC(=O)C(=O)N1CC(C)(C)C (stereo not given in full) | / | 0.8 | 11 | / | -18%
CN(CC(=O)Nc1c(Cl)cccc1Cl)C(=O)CCc1nc2sc3c(c2c(=O)[nH]1)CCCC3 | / | -4.3 | -5 | / | /
S=C1NCN(Cc2cccnc2)CN1c1cccc(Cl)c1 | / | -2.2 | -6 | / | -4%
CC(C)(C)CN1C(N)=NC[C@@H]1Cc1ccccc1 | / | -0.1 | -9 | / | -13%
CCOc1ccc(-c2cc(C(=O)NCCCN3CCN(CC)CC3)c3ccccc3n2)cc1 | -22 | -2.1 | -14 | -1 | -1%
CCOC(=O)c1ccc(-n2c(CN3CCN(CC)CC3)nc3ccc([N+](=O)[O-])cc3c2=O)cc1 | 8 | -0.9 | 0 | / | 64%
O=C(Nc1ccccc1-c1ccccc1)C1CCCC1 | 2 | -1.2 | 5 | / | 1%
COc1cc2[nH]c(C(=O)N(C)C3CCS(=O)(=O)C3)cc2c(OC)c1OC (stereo not given) | / | -1.9 | -8 | / | /
COc1cc(/C=C/C(=O)O)cc(S(=O)(=O)Nc2ccc3c(c2)CCC3)c1OC | / | -0.8 | 3 | / | /
C[C@H](Nc1ccc(C(F)(F)F)cc1[N+](=O)[O-])C(=O)O | / | 0.8 | 16 | / | -2%
COC(=O)CCc1c(C)c(C(=O)c2cccc(OC)c2OC)c2ccccn12 | / | 1.5 | 5 | / | /

The closing four entries of the part above lead into the next.
SMILES | Arbovirus anti | RecA splice inh | Mtb bLac sens | YopH PTP inh | Mtb growth | others
COc1cc2[nH]c(C(=O)N(C)C3CCS(=O)(=O)C3)cc2c(OC)c1OC (stereo not given) | / | -1.9 | -8 | / | /
COc1cc(/C=C/C(=O)O)cc(S(=O)(=O)Nc2ccc3c(c2)CCC3)c1OC | / | -0.8 | 3 | / | /
C[C@H](Nc1ccc(C(F)(F)F)cc1[N+](=O)[O-])C(=O)O | / | 0.8 | 16 | / | -2%
COC(=O)CCc1c(C)c(C(=O)c2cccc(OC)c2OC)c2ccccn12 | / | 1.5 | 5 | / | /
O=C(Oc1csc(=S)n1C(=O)c1ccccc1)c1ccccc1 | 8 | 5.0 | -7 | -15 | 0%
c1ccc2c(c1)oc1c(NCc3ccc4c(c3)OCO4)ncnc12 | 6 | 2.2 | 52 | -32 | 58%
Cc1ccc(NC(=O)c2nc[nH]c2C(=O)NCC(=O)OC(C)(C)C)cc1 | / | 2.8 | 21 | / | 4%
Cc1cccc(NC(=S)NN2CCN(C)CC2)c1C | 7 | 1.6 | -6 | -7 | 0%
Cc1ccc(C)c(OCc2cc(C(=O)N(C)Cc3nccn3C)no2)c1 | / | 1.0 | -13 | / | /
Cn1nnnc1SCC(=O)NCc1cccc(C(=O)O)c1 | -6 | -0.9 | -24 | -2 | -1%
O=C(CSc1nc(-c2ccc(F)cc2)nc2ccc(F)cc12)Nc1cccc(C(=O)O)c1 | 5 | 1.9 | 3 | / | -9%
CC(=O)Nc1cc(-c2ccc(F)cc2)[nH]n1 | 21 | 1.9 | -6 | / | 11%
Cc1cc(C)c2sc(N(CCCN(C)C)C(=O)CN3C(=O)c4ccccc4C3=O)nc2c1 | 1 | -2.4 | 3 | / | -3%
CCOC(=O)C1(Cc2cccc(F)c2)CCN(Cc2ccc(COC)o2)CC1 | / | -0.2 | 2 | / | 0%
CNC(C)C#Cc1ccc2c(=O)c3c(OC)cccc3oc2c1 (stereo not given) | / | -8.2 | 2 | / | /
O=C(Nc1ccccc1F)OC1CN2CCC1CC2 (stereo not given) | / | -0.4 | -3 | / | 6%
C=CCC1(NC(C)c2ccccc2)CCCCC1 (stereo not given) | 2 | 0.0 | 1 | -39 | -5%
COc1ccccc1NC(=O)C1CCCCC1 | 5 | -1.7 | 16 | -15 | /
COc1ccc(N2C(=O)CSC2c2ccc([N+](=O)[O-])cc2)cc1 (stereo not given) | / | 2.1 | -2 | / | /
COc1ccccc1NC(=O)c1ccc(-n2cccn2)nc1 | 2 | 2.6 | -1 | -16 | -5%
Cc1cc(C)n(-c2ccc(-n3ccnc3)nn2)n1 | -2 | 0.1 | 4 | -16 | -5%
Clc1ccc(Nc2nc3cccnc3s2)cc1 | 1 | 2.3 | 0 | / | 0%
Cc1cccc(NC(=O)Nc2c(C)[nH]c(=O)[nH]c2=O)c1C | / | 1.3 | 1 | / | /
CN1C(=O)C(Cc2cccs2)C(=O)N(C)C1=O | 8 | 2.4 | 1 | -47 | -2% | Arbovirus anti repeat=-2
O=C(CCSc1nc(-c2ccc3c(c2)OCO3)cc(C(F)(F)F)n1)NCc1ccccc1 | -9 | 1.1 | -9 | -14 | 3%
CCc1ccc(OCC(=O)OC2CCS(=O)(=O)C2)cc1 (stereo not given) | 4 | 0.5 | 9 | -29 | -5%
CN(C)CCO/N=C(\c1ccc(Br)cc1)c1cccnc1 | / | -0.1 | 5 | / | /
COc1ccccc1NC(=O)C(=O)N1CCCC1 | -3 | -3.2 | 2 | / | -3%
COc1cc(/C=N/NP(=S)(c2ccccc2)c2ccccc2)ccc1O | -37 | 6.5 | -3 | -7 | -6%
CCn1c(SCC(=O)N2CCCc3ccccc32)nc2c(c1=O)SC(C)C2 (stereo not given) | 1 | / | -5 | / | 1%
FC(F)(F)COc1nc(N2CCCCC2)nc(N2CCNCC2)n1 | 0 | 0.6 | -4 | -25 | 1% | Arbovirus anti repeat=0
C/C(=N/NS(=O)(=O)c1ccc(Br)cc1)c1ccc(NC(=O)c2ccc(C)o2)cc1 | 21 | 5.2 | -2 | -1 | 3%
CCCCCCCC(=O)OCC(O)CO (stereo not given) | 9 | -0.1 | -3 | -36 | 1%
O=C(O)CSc1nnc(-c2ccc3c(c2)OCO3)o1 | 2 | -0.8 | -8 | -7 | -1%
C=C(C)[C@@H]1CC=C(CN2CCC(CCOC)(C(=O)OCC)CC2)CC1 | -11 | -1.3 | 1 | / | -2%
CCCCOC(=O)Nc1ccc(N2CCCCC2)cc1 | -6 | -1.0 | -7 | -23 | 0%
COC(=O)c1cc2c(cc1Cl)N1CCCCCC1=NS2(=O)=O | / | -0.2 | -4 | / | -10%
C=CCNc1nc(C)c(CNc2c(C)cc(C)cc2C)nc1C#N | / | 4.2 | 4 | / | /
COc1ccc(C(=S)N2CCN(C)CC2)cc1Br | -2 | -1.1 | 0 | -36 | -8%
Cc1ccc(C(=O)NC(=S)N2CCN(c3ccc([N+](=O)[O-])cc3)CC2)cc1 | -5 | -1.4 | -11 | -18 | 2%
CC(C)SCc1cc(N2CCCC2)nc(-c2ccccc2)n1 | 12 | 8.4 | 7 | / | -4%
Cn1c(N2CCCC2)nc2c1c(=O)n(Cc1ccc(F)cc1)c(=O)n2C | 7 | 1.5 | 6 | -40 | -10%
CC1(C)Cc2nc(N)c(C(=O)NCCO)cc2CO1 | 2 | 1.5 | -6 | -32 | 5%
Cc1ccc(OCC(=O)Nc2ccc(F)cc2)cc1C | 0 | 1.0 | 39 | -19 | 60%
COc1ccc(Cn2c(C)ccc2C)cc1 | 4 | 4.6 | -8 | -10 | -7%
CCCn1c(SCC(=O)NC(=O)NCc2ccco2)n[nH]c1=O | 2 | / | / | 11 | 1%
O=C(NCc1cccs1)c1ccc(S(=O)(=O)N2CCCCC2)cc1 | 1 | -3.6 | 0 | / | 5%
Cc1ccccc1C(=O)Nc1cccc(NC(=O)c2ccc(-c3ccc(Br)cc3)o2)c1 | -19 | 3.0 | 86 | -32 | /
COc1cccc(/C=C2\N=C3CCCCCN3C2=O)c1 | 6 | / | -1 | -3 | -6%

2 successive entries out of the list so far, quoted:
SMILES | Arbovirus anti | RecA splice inh | Mtb bLac sens | YopH PTP inh | Mtb growth | others
Cc1cccc(NC(=O)Nc2c(C)[nH]c(=O)[nH]c2=O)c1C | / | 1.3 | 1 | / | /
CN1C(=O)C(Cc2cccs2)C(=O)N(C)C1=O | 8 | 2.4 | 1 | -47 | -2% | Arbovirus anti repeat=-2

Other records:
SMILES | Arbovirus anti | RecA splice inh | Mtb bLac sens | YopH PTP inh | Mtb growth | others
CCCCN(CC(=O)NC1CCCC1)C(=O)C(=O)Nc1ccc2c(c1)OCCO2 | / | -0.5 | -2 | / | /
O=C1c2ccccc2C(=O)N1CC(=O)N1c2ccccc2Sc2ccc(C(F)(F)F)cc21 | 0 | -0.9 | -6 | -21 | 3%
CCCCCCc1nnc(N)s1 | -1 | 4.0 | 2 | -12 | -6%
CCOC(=O)C1(CCOc2ccccc2)CCN(C(=O)c2cncs2)CC1 | 1 | -4.1 | 3 | / | 0%
Cc1ccnc(N=Cc2c(O)ccc3oc4c(c23)CCCC4)c1 | -4 | / | -5 | -28 | 1%
N#CCCN/N=C(/Cc1nc2ccccc2[nH]1)c1ccc(Cl)cc1 | 1 | -1.2 | 15 | -7 | -1%
C/C=C/C=C\C(=O)Nc1cccc(C2=NOC3(C2)C[C@@H](C(N)=O)N(C(=O)c2cc([N+](=O)[O-])cc([N+](=O)[O-])c2C)C3)c1 (stereo not given in full) | / | 3.5 | 24 | / | -6%
Cc1cccc(NC(=O)CC2C(=O)NCCN2C(=O)Nc2ccc(Cl)cc2)c1 (stereo not given) | / | -1.7 | 30 | / | /
CCN1CCN(CCCNC(=O)c2cc3c(=O)[nH]c4ccccc4c3s2)CC1 | -14 | -2.3 | -9 | -22 | -12%
O=C(/C=C/c1ccco1)NC(=S)Nc1cccc(-c2nc3ccccc3s2)c1 | / | 2.4 | 73 | -20 | 5%
CN(c1ccc(OCC(=O)N2CCOCC2)cc1)S(=O)(=O)c1ccc(Cl)cc1 | 1 | -1.2 | 2 | / | 2%
Cc1ccccc1-n1c(-c2ccc([N+](=O)[O-])cc2)nc2ccccc2c1=O | 3 | 5.6 | 5 | 2 | 5%
COc1cc(CCNc2ccc3nnc(-c4ccccc4)n3n2)cc(OC)c1OC | -6 | 7.0 | 0 | -19 | 10%
CC/C(=N\NC(=O)CSc1ncccn1)c1ccc2c(c1)OCCO2 | 2 | -0.3 | 1 | -23 | 2%
Cn1c2ccccc2c2c(C(=O)NCC3CCCO3)cn(C3CCCC3)c(=O)c21 (stereo not given) | 2 | 12 | -8 | -27 | 9%
COc1ccccc1-c1cc(C(=O)Nc2ccccc2SC)no1 | 3 | -1.2 | 1 | -41 | -5%
